High-throughput results from PubChem BioAssay.
AmpC nodet inh: AmpC beta-lactamase inhibition, detergent-free assay; P00811; AmpC nitrocefin hydrolysis, absorbance 480 nm, no detergent; potencies from a single point are estimates; Potency, µM (doses to about 28.7 µM), inactives show at the highest dose activity change, negative = inhibition; 71,000 compounds, 1.8% hits; AID 585; active = falling curve, for most hits resting on a single point; inconclusive = weak or doubtful change; inactive = flat or rising curve; note: % of control where 0% means no effect; about half of the hits show no inhibition at the top dose; a quarter of the inactives give rising signals
Target sequence (P00811 whole entry, looked up): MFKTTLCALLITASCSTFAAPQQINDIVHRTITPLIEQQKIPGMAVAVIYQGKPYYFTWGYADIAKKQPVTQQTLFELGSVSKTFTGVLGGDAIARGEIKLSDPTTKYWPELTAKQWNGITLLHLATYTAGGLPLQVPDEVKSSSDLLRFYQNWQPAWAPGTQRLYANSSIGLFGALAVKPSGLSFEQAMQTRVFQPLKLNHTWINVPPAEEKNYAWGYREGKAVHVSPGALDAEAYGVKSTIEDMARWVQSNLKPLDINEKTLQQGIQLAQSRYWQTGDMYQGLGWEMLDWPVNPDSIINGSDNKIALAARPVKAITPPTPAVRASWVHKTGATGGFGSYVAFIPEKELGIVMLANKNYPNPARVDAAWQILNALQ
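AmpC, 20 mM phosphate pH 7.0; 15 min cpd preinc, RT; start with nitrocefin (800 uM stock); A480 kinetic read, 20 s intervals, 4 min. No-enzyme wells = negative control.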
The depositor's hits bear a star; & = joins results of further samples; [ ] = remark or other dose. Potency is the fitted concentration of half-maximal effect. The list is partial; rates above refer to the full screens.

What do the screens show for `O=C(CN1CCN(c2ncccn2)CC1)Nc1ccccc1-n1cccc1`?
AmpC nodet inh: 60.6%

Results for O=c1n(Cc2ccccc2)c2cc(Cl)cnc2n1Cc1ccccc1 ?
AmpC nodet inh: -2.3%

What do the screens show for `CCOc1cc(C(=O)Nc2cc(C)ccn2)cc(OCC)c1OCC`?
AmpC nodet inh: 46.9%

How did CN(C)C(=O)c1ccc(NC(=O)c2cccnc2)cc1 do in these assays?
AmpC nodet inh: 4.9%

Results for Cc1ccc(C)c(/C(O)=C2/C(=O)C(=O)N(CCN3CCOCC3)C2c2ccco2)c1 (centres undefined) ?
AmpC nodet inh: 16.8%

What do the screens show for `N#CCCN1CCN(S(=O)(=O)c2ccc(S(=O)(=O)NC3CCCC3)cc2)CC1`?
AmpC nodet inh: 26.4%

What do the screens show for `NC1(C(=O)O)C[C@@H](C(=O)O)[C@H](C(=O)O)C1`?
AmpC nodet inh: 42.3%&17.4%

What do the screens show for `CCOc1ccc2nc(N3CCCCCC3)sc2c1`?
AmpC nodet inh: 43.9%

How did Cc1c(N2C(=O)c3ccccc3C2=O)c(=O)n(-c2ccccc2)n1C do in these assays?
AmpC nodet inh: -3.9%

Results for C#CCSc1nnc(-c2c[nH]c3ccccc23)n1C ?
AmpC nodet inh: 7.6%

Results for O=C1CCC(c2ccccc2)=NN1c1nc2ccccc2s1 ?
AmpC nodet inh: 16.0%[5.75 µM]

What do the screens show for `c1ccc(N=Nc2ccccc2)cc1`?
AmpC nodet inh: -8.8%

Results for CO/N=C(\C(=O)N[C@@H]1C(=O)N2C(C(=O)O)=C(CSc3nc(=O)c(O)nn3C)CS[C@@H]12)c1csc(N)n1 ?
AmpC nodet inh: 12.6µM*

How did COc1ccc2c(c1)SC1=NCCS(=O)(=O)N12 do in these assays?
AmpC nodet inh: -0.4%

How did Cc1onc(COc2ccccc2O)c1Br do in these assays?
AmpC nodet inh: -9.9%

How did O=C(CSc1ccc2c(c1)OCCO2)NCc1ccco1 do in these assays?
AmpC nodet inh: -1.4%

How did O=C(Nc1nc2ccc(S(=O)(=O)N3CCCCC3)cc2s1)c1ccncc1 do in these assays?
AmpC nodet inh: 53.5%

What do the screens show for `CCOC(=O)C(C)Sc1nc(N)c(NC(=O)c2ccc(OC)c(OC)c2)c(=O)[nH]1` (centres undefined)?
AmpC nodet inh: -8.6%

What do the screens show for `CCOC(=O)c1c(C)[nH]c(C(=O)OCC(=O)N2CCc3ccccc32)c1C`?
AmpC nodet inh: 21.6%

Results for COc1ccc(C)cc1NC(=O)C1CC(=O)N(Cc2ccco2)C1 (centres undefined) ?
AmpC nodet inh: 9.8%

How did COCCn1c(SCC(=O)Nc2nnc(C)s2)nnc1-c1c[nH]c2ccccc12 do in these assays?
AmpC nodet inh: 0.5%

How did COc1cc2c(=O)n(-c3ccc(C)cc3)c(=O)n(CC(=O)c3ccc4c(c3)OCO4)c2cc1OC do in these assays?
AmpC nodet inh: 119.2%

Results for CCS(=O)(=O)CCSc1nc2ccccc2o1 ?
AmpC nodet inh: 0.8%

What do the screens show for `O=C(Oc1ccc2ccccc2c1)c1ccco1`?
AmpC nodet inh: 0.4%

What do the screens show for `CCOc1ccc(C(=O)Nc2cc(C)on2)cc1`?
AmpC nodet inh: 0.1%

What do the screens show for `O=C(Nc1nc(-c2ccncc2)cs1)c1ccco1`?
AmpC nodet inh: -7.7%

What do the screens show for `CN(C1CCCCC1)S(=O)(=O)c1ccc2c(c1)c(=O)c(C(=O)NCCN1CCCC1)cn2C`?
AmpC nodet inh: 90.8%

Results for N=c1sc2ccccc2n1-c1ccccc1 ?
AmpC nodet inh: -4.3%

What do the screens show for `O=C(CN1CCc2ccccc2C1)Nc1ccccc1N1CCCCCC1`?
AmpC nodet inh: 22.4%

What do the screens show for `COc1nc(C)ccc1-c1noc(-c2ccncc2)n1`?
AmpC nodet inh: 9.2%

Some of these compounds in order of number of heavy atoms, low to high.
What do the screens show for `CCOc1ccc(C(=O)Nc2cc(C)on2)cc1`?
AmpC nodet inh: 0.1%

What do the screens show for `O=C(Nc1nc(-c2ccncc2)cs1)c1ccco1`?
AmpC nodet inh: -7.7%

How did COCCn1c(SCC(=O)Nc2nnc(C)s2)nnc1-c1c[nH]c2ccccc12 do in these assays?
AmpC nodet inh: 0.5%

How did COc1cc2c(=O)n(-c3ccc(C)cc3)c(=O)n(CC(=O)c3ccc4c(c3)OCO4)c2cc1OC do in these assays?
AmpC nodet inh: 119.2%

The main list resumes with the four entries that preceded the break.
What do the screens show for `CN(C1CCCCC1)S(=O)(=O)c1ccc2c(c1)c(=O)c(C(=O)NCCN1CCCC1)cn2C`?
AmpC nodet inh: 90.8%

Results for N=c1sc2ccccc2n1-c1ccccc1 ?
AmpC nodet inh: -4.3%

What do the screens show for `O=C(CN1CCc2ccccc2C1)Nc1ccccc1N1CCCCCC1`?
AmpC nodet inh: 22.4%

What do the screens show for `COc1nc(C)ccc1-c1noc(-c2ccncc2)n1`?
AmpC nodet inh: 9.2%

How did COCc1nc(-c2ccc(-c3ccc(OC)cc3)nc2OC)no1 do in these assays?
AmpC nodet inh: 108.3%

What do the screens show for `O=C(CN1C(=O)c2ccccc2C1=O)N1CCN(c2ccccc2)CC1`?
AmpC nodet inh: 19.7%

What do the screens show for `C(=N\n1cnnc1)/c1ccc(N2CCOCC2)s1`?
AmpC nodet inh: -3.2%

What do the screens show for `Cc1ccc(C2C(=O)N(C3CCC(C)CC3)CC(=O)N2C2CC2)cc1` (centres undefined)?
AmpC nodet inh: 19.1%

Results for CC1(C)Oc2ccc(C(=O)N3CCc4ccccc43)cc2N(CC(=O)N2CCCC2)C1=O ?
AmpC nodet inh: 98.2%

What do the screens show for `CCN(CC)S(=O)(=O)c1cccc(-c2nnc(SC(C)C#N)n2Cc2ccccc2)c1` (centres undefined)?
AmpC nodet inh: 112.2%

Results for CC1(C)[C@@H](OC(=O)CCC(=O)O)CC[C@@]2(C)[C@H]1CC[C@@]1(C)[C@H]2C(=O)C=C2[C@H]3C[C@](C)(C(=O)O)CC[C@]3(C)CC[C@@]21C ?
AmpC nodet inh: 13.6%[12.8 µM]

Results for Cc1nc2ccc(NC3=NCCCCC3)cc2s1 ?
AmpC nodet inh: -9.0%

Results for CC(N)C(=O)c1ccco1 (centres undefined) ?
AmpC nodet inh: -3.4%

What do the screens show for `COc1cc(C(=O)Nc2cnc(NC(=O)C(C)C)cc2C)cc(OC)c1OC`?
AmpC nodet inh: 12.5%

Results for Cc1c(Cc2ccccc2)c(=O)oc2c(C)c(OCc3nn[nH]n3)ccc12 ?
AmpC nodet inh: -13.8%

Results for CC(CN(C)Cc1ccccc1)OC(=O)C1COc2ccccc2O1 (centres undefined) ?
AmpC nodet inh: 3.98µM*[single pt active]

How did O=C(CSc1n[nH]c(-c2ccccc2Br)n1)NC(=O)NCc1ccco1 do in these assays?
AmpC nodet inh: -16.0%

How did Cc1nnc(SCC(=O)NCc2ccc3c(c2)OCO3)s1 do in these assays?
AmpC nodet inh: -8.1%

How did CC(C)c1ccc(NC(=O)CCNS(=O)(=O)c2cccc3nonc23)cc1 do in these assays?
AmpC nodet inh: 16.8%

How did CCOc1ccc(-n2c(Cc3cc(=O)[nH]c(=O)[nH]3)nnc2SC(C)C)cc1 do in these assays?
AmpC nodet inh: 12.3%

How did O=S(=O)(Nc1nnc(-c2ccccc2)s1)c1ccc(Cl)cc1 do in these assays?
AmpC nodet inh: -17.0%

Results for CCOC(=O)CCC(=O)NCc1ccc2[nH]c(C)cc2c1 ?
AmpC nodet inh: 11.4%

Results for O=C(CN1CCCC1)N1c2ccccc2Sc2ccccc21 ?
AmpC nodet inh: 7.1%

How did Cc1ccc(OCCC(=O)Nc2c(C)n(C)n(-c3ccccc3)c2=O)cc1 do in these assays?
AmpC nodet inh: 26.2%

How did CCCc1cc(=O)oc2cc(C)cc(OCc3nn[nH]n3)c12 do in these assays?
AmpC nodet inh: -10.0%

Results for CC1=C(C(=O)OCc2ccccc2)C(c2cccnc2)n2ncnc2N1 (centres undefined) ?
AmpC nodet inh: 6.1%

What do the screens show for `CC(C)C(NC(=O)C1CCCCC1)C(=O)Nc1ccc2c(c1)OCCO2` (centres undefined)?
AmpC nodet inh: -10.9%

Results for O=S(=O)(c1ccc(Cl)cc1Br)N1CCCCC1 ?
AmpC nodet inh: -11.0%

Results for Cn1c(=O)c2c(nc(SCC(=O)Nc3ccccc3N3CCCCC3)n2C)n(C)c1=O ?
AmpC nodet inh: 123.5%

Results for Oc1ccccc1O ?
AmpC nodet inh: -1.6%&4.6%

How did CC1(C)SC2c3ccccc3C(=O)N2[C@@H]1C(=O)NCCCN1CCOCC1 (some centres undefined) do in these assays?
AmpC nodet inh: 37.8%

How did CC1=NC(Nc2nc(C)c3ccccc3n2)=NC(C)(C)C1 do in these assays?
AmpC nodet inh: 3.8%

Results for CCn1c(SCC(=O)Nc2nonc2C)nnc1-c1ccoc1C ?
AmpC nodet inh: 0.2%

What do the screens show for `COc1ccc(OC)c(-c2cc(C(=O)N3CCCc4ccccc43)no2)c1`?
AmpC nodet inh: 31.6%

What do the screens show for `COC(=O)c1[nH]c2cc(C)ccc2c1NC(=O)CN1CCN(c2ccccc2OC)CC1`?
AmpC nodet inh: 96.6%

What do the screens show for `CCOc1ccccc1OCCCC(=O)N1CCN(S(=O)(=O)c2ccc(C)cc2)CC1`?
AmpC nodet inh: 111.7%

What do the screens show for `CCN(CC)c1ccc(C2C3CCCCC3(O)CCN2CC(=O)N2CCCCC2)cc1` (centres undefined)?
AmpC nodet inh: 99.1%

What do the screens show for `Cc1cc(Nc2nc3ccccc3[nH]c2=O)n(-c2ccccc2)n1`?
AmpC nodet inh: -10.3%

How did Cn1c(=O)c2c(nc(NCCNc3nc4c(c(=O)n(C)c(=O)n4C)n3C)n2C)n(C)c1=O do in these assays?
AmpC nodet inh: 1.4%[5.75 µM]

What do the screens show for `Cc1ccc(NC(=O)CS(=O)CC(=O)NC(C)CCc2ccco2)cc1Cl` (centres undefined)?
AmpC nodet inh: -2.6%

Results for CCn1c(=S)sc2nc(C)sc21 ?
AmpC nodet inh: 7.1%

What do the screens show for `COC(=O)c1ccccc1NC(=O)Nc1cccnc1`?
AmpC nodet inh: -0.5%

What do the screens show for `Cc1ccc(CCNC(=O)C2CCN(c3nn4c(=O)cc(C)nc4s3)CC2)cc1`?
AmpC nodet inh: 49.1%

Results for CC(=O)Oc1cc(C(C)C)c(OCCN(C)C)cc1C ?
AmpC nodet inh: 6.8%[12.8 µM]

What do the screens show for `COc1ccc(C2c3c(oc4c(C)cc(C)cc4c3=O)C(=O)N2Cc2cccnc2)cc1OC` (centres undefined)?
AmpC nodet inh: 106.0%

How did CC1CC(C)CN(CC(=O)N2CCc3[nH]c4ccccc4c3C2)C1 (centres undefined) do in these assays?
AmpC nodet inh: 42.8%

What do the screens show for `Cn1cc(-c2nc3cncnc3n(-c3ccccc3)c2=O)c2ccccc21`?
AmpC nodet inh: 66.8%

Results for CS(=O)(=O)Nc1cccc(-c2ccc3ncnc(NCc4cccnc4)c3c2)c1 ?
AmpC nodet inh: -0.7%

Results for COCCOC(=O)C1=C(C)NC2=C(C(=O)CC(c3cccs3)C2)C1c1ccsc1 (centres undefined) ?
AmpC nodet inh: 19.8%

How did C=CCSc1nc2ccccc2[nH]1 do in these assays?
AmpC nodet inh: -2.5%

How did NC(=O)[C@@H]1CCCN1Cc1ccc2c(c1)OCO2 do in these assays?
AmpC nodet inh: 1.3%[5.75 µM]

Results for CCOC(=O)c1ccc(NC(=O)CNC(=O)C2CCCCC2)cc1 ?
AmpC nodet inh: 12.8%

How did CCn1c(=O)c2cc(S(=O)(=O)NCCOc3ccccc3)ccc2n(CC)c1=O do in these assays?
AmpC nodet inh: 18.0%

What do the screens show for `Cc1cc(NC(=O)c2sc(Nc3cccc(C(F)(F)F)c3)nc2N)no1`?
AmpC nodet inh: inconclusive

Results for O=C(CCn1c(=O)sc2ccccc21)NCCC1=CCCCC1 ?
AmpC nodet inh: 10.0%

How did Cc1ccc2c(c1)c1c(n2CC(O)Cn2c(C)nc3ccccc32)/C(=N\O)CCC1 (centres undefined) do in these assays?
AmpC nodet inh: 86.6%

Results for CNc1nc(NC)nc(-n2c(C(F)(F)F)nc3ccccc32)n1 ?
AmpC nodet inh: -2.9%

How did CCc1c(C)nc2[nH]nc(NC(=O)C(F)(F)F)n2c1=O do in these assays?
AmpC nodet inh: -2.2%

Results for CNC(=O)c1ccc2snnc2c1 ?
AmpC nodet inh: 3.98µM*[single pt active]

How did O=C(Nc1ccccc1Cl)N1CCN(c2ncccn2)CC1 do in these assays?
AmpC nodet inh: 5.6%

Results for CCOC(=O)c1ccc(NC(=O)NC2CC3CCC(C2)N3Cc2nnnn2C(C)(C)C)cc1 (centres undefined) ?
AmpC nodet inh: 33.2%

Results for CCCCOc1ccc(C(=O)Nc2ccc(S(=O)(=O)Nc3cc(C)on3)cc2)cc1OC ?
AmpC nodet inh: -5.4%

What do the screens show for `COCC(=O)Nc1nc2ccc(C)cc2s1`?
AmpC nodet inh: 20.2%

What do the screens show for `O[C@@H]1[C@H](O)[C@H]2[C@@H](O)CCN2C[C@@H]1O`?
AmpC nodet inh: 1.8%

What do the screens show for `COc1ccc(C(=O)N2CCN(C(=O)Cc3ccccc3)CC2)cc1OC`?
AmpC nodet inh: 17.6%

Results for CCN(CC)CCCCOc1ccccc1OC ?
AmpC nodet inh: -6.5%

How did COc1cc(N)ccc1NC(=O)c1cccs1 do in these assays?
AmpC nodet inh: -8.9%

Results for CCC(=O)Nc1cc(Cl)ccc1N1CCN(C(=O)CC)CC1 ?
AmpC nodet inh: 22.1%

Results for O=C(Cn1cnc2c(nnn2Cc2ccc(F)cc2)c1=O)NCC1CCCO1 (centres undefined) ?
AmpC nodet inh: 3.0%

How did COc1cccc(Nc2ncc3nc(-c4ccc(Cl)cc4)c(=O)n(CCC#N)c3n2)c1 do in these assays?
AmpC nodet inh: 9.4%

Results for CC(=NCCCO)c1c(O)n(Cc2ccccc2)c(=O)[nH]c1=O ?
AmpC nodet inh: 5.0%
